Cruzain inh Det: inhibitors of Trypanosoma cruzi cruzain with detergent; AID 1478; purified cruzain, Z-FR-AMC fluorescence, 0.01% Triton; P25779; Potency, µM, without a hit: max response, negative = inhibition, most hits filed as inhibitors; 0.43% of 200,000 active;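 note: plate controls were neutral wells for no effect and buffer without enzyme for full effect; nearly all actives have a fitted effect of over 40% in size; top concentration of the series not given in the record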
Target sequence (P25779 123-467 limits assumed): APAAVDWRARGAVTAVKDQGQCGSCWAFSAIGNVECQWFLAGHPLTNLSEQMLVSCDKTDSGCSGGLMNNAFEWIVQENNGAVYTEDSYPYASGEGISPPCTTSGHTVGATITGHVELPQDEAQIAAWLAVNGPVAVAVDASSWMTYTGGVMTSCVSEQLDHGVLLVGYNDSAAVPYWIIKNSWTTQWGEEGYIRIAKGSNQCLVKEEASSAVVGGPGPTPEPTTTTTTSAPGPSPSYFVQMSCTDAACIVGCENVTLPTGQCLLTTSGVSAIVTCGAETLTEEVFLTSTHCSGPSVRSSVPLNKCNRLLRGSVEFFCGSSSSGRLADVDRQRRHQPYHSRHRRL
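Enzyme 1.5 nM, Z-FR-AMC 2 uM, NaOAc 100 mM pH 5.5, DTT 5 mM, Triton X-100 0.01%; 15 min RT compound preincubation; kinetic ex360/em450, 60 s delta.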
RE007 growth inh: less growth of the S. pombe RE007 Vpr strain. S. pombe RE007 Vpr strain, BacTiter-Glo ATP luminescence, 24 h; control for the full effect not named in the record. Potency, µM (top dose mostly 92.2 µM), without a hit: at the top dose activity change, negative = less growth. 0.21% of 360,000 active. AID 651644; active = well fitted falling curve with a large enough effect; inconclusive = small, poorly fitted or top-dose-only effect; inactive = no such curve, though single readings can be large or run the other way;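 note: % is set by controls: 0 for no effect and ±100 for the full control effect; nearly all actives have a fitted effect of over 50% in size; the assay follows cell death caused by Vpr and the record does not say whether a fall means rescue or toxicity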
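Fission yeast strain RE007, carrying one chromosomally integrated HIV-1 vpr copy, was seeded at OD 0.01 in PMG+AL medium with 23 nL pinned compound. After 24 h at 30 °C and 99% humidity, viability was read by BacTiter-Glo luminescence.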
LASV entry inh: inhibitors of Lassa virus binding or cell entry; Lassa virus pseudotype entry inhibition, cell reporter; control for the full effect not named in the record; AID 540256; 1.2% of 300,000 active; Potency, µM (highest dose often 37.9 µM), for the others: at the top dose activity change, negative = inhibition, actives largely listed as inhibitors; active means well fitted inhibition curve with a large enough effect; inconclusive means small, poorly fitted or top-dose-only effect, or effect the other way; inactive means flat fitted curve, though single readings scatter; tested in HEK293 cells; note: % is set by controls: 0 for no effect and ±100 for the full control effect; nearly all actives have a fitted effect of over 50% in size; luciferase read-out
Marburg entry inh: blocks Marburg virus binding to or entry into cells. Potency, µM (top dose mostly 37.8 µM), for the others: top-dose activity change, negative = inhibition, usual class: inhibitors. Marburg virus pseudotyped entry inhibition, cell reporter; control for the full effect not named in the record; about a third of the inactives were read at about 46 µM. 1.8% of 300,000 active; active = well fitted inhibition curve with a large enough effect; inconclusive = small, poorly fitted or top-dose-only effect, or effect the other way; inactive = flat fitted curve, though single readings scatter; tested in HEK293 cells; about a fifth of its hits are not listed in these tables; note: % is set by controls: 0 for no effect and ±100 for the full control effect; luciferase read-out
NS1 function inh: inhibitors of influenza NS1 protein function; S. cerevisiae slowed by influenza A NS1, growth recovery by OD600; Potency, µM (series often up to 46.1 µM), for the others: at the highest dose activity, positive = more growth; 0.4% of 270,000 active; AID 2326; active means well fitted rising curve with a large enough effect; inconclusive means small, poorly fitted or top-dose-only effect; inactive means no such curve, though single readings can be large or run the other way; note: nearly all actives have a fitted effect of over 50% in size
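A cell-based growth assay was used: compounds that relieve NS1-induced slow growth of budding yeast raise OD600. Assay medium was yeast nitrogen base with ammonium sulphate and -URA supplement, pH 6.0, with 2% galactose.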
StopGo reporter: FMDV 2A StopGo reporter, luciferase signal; human cells with a luciferase reporter of 2A StopGo recoding; control for the full effect not named in the record; Potency, µM (titrated, usually from 57.9 µM), without a hit: at the highest dose signal change, negative = less light; 1.2% of 410,000 active; AID 1159524; active = well fitted falling curve with a large enough effect; inconclusive = small, poorly fitted or top-dose-only effect; inactive = no such curve, though single readings can be large or run the other way; tested in HEK293T cells; note: % is set by controls: 0 for no effect and ±100 for the full control effect; nearly all actives have a fitted effect of over 45% in size; luciferase light after 4 h
Cruzain inh noDet: inhibitors of Trypanosoma cruzi cruzain without detergent | purified cruzain, Z-FR-AMC fluorescence, no detergent | Potency, µM, inactives show max response, negative = inhibition, most hits filed as inhibitors | 2.3% of 200,000 active | AID 1476;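 note: plate controls were enzyme without inhibitor for no effect and buffer without enzyme for full effect; nearly all actives have a fitted effect of over 40% in size; top concentration of the series not given in the record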
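Purified cruzain at 1.5 nM, pre-incubated 15 min with compound at room temperature in 100 mM sodium acetate pH 5.5, 5 mM DTT, 0.00005% Triton X-100. Reaction started with 2 uM Z-FR-AMC; AMC fluorescence increase over 60 s gives rate.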
SARS PLpro yeast: inhibitors of SARS-CoV papain-like protease in yeast; S. cerevisiae expressing SARS-CoV PLpro, growth rescue; control for the full effect not named in the record; Potency, µM (doses to about 32.9 µM), inactives show top-dose activity, positive = growth rescue; 0.19% of 330,000 active; active means well fitted rising curve with a large enough effect; inconclusive means small, poorly fitted or top-dose-only effect; inactive means no such curve, though single readings can be large or run the other way; note: 0% is about no effect; nearly all actives have a fitted effect of over 55% in size; growth read by luminescence after 48 h
Active calls of the source: *; ? = inconclusive; / = not tested or not shown; & = joins results of further samples; [ ] = dose if it differs, or a comment. Unless noted, calls come from the whole dose curve; as a rule, active = well fitted curve in the direction sought with a large enough effect; inconclusive = small, poorly fitted or top-dose-only effect, or another doubt; inactive = no such curve, though single readings can be large; an effect the other way counts as inactive or inconclusive. Potency is the fitted concentration of half-maximal effect.

mol,SARS PLpro yeast,StopGo reporter,LASV entry inh,Cruzain inh Det,Marburg entry inh,RE007 growth inh,Cruzain inh noDet,NS1 function inh
Cc1ccc(S(=O)(=O)N2CCN(C(=O)CSc3nnc(-c4ccco4)o3)CC2)cc1,-1%,-16%,0%,-0.7%,4%,10%,-3%,-16%
CN(CC1CCCN(CCc2ccc(F)cc2)C1)C(=O)CCC(F)(F)F (configuration not stated),0%,-27%,-3%[46.1 µM],/,-1%[46.1 µM],-14%,/,7%
O=C(CSc1ccccc1C(=O)O)NC1CCCCCC1,0%,21%,2%,/,8%,4%,/,4%
Cc1ccc(C)c(Cn2c(CN(C)Cc3ccccc3)nc3c2c(=O)n(C)c(=O)n3C)c1,1%,-19%,/,-3.3%,1%,-21%,?,-34%
CC(C)c1cnc2c(c1SCC(=O)NC(C)(C)C)c(=O)n(C)c(=O)n2C,/,-15%,12%[46.1 µM],-0.3%,/,/,-8%,/
Cc1ccc(S(=O)(=O)Nc2ccc(N(C)C)cc2)cc1,-2%,7%,-26%,/,1%[46.1 µM],0%,/,1%
CC(C)N(C(=O)Cn1cc(S(=O)(=O)CC(=O)Nc2ccccc2)c2ccccc21)C(C)C,3%,16%,1%,/,1%,-10%,/,6%
COc1ccccc1NC(=O)CCN1C(=O)c2ccccc2C1=O,1%,-1%,3%,/,5%,5%,/,-1%
CCSc1ccc(-c2cccc([N+](=O)[O-])c2)nn1,0%,49%[activator],22%,/,23%[46.1 µM],1%,/,/
COc1ccc(O)c(-c2c(-c3ccc(Cl)cc3)n[nH]c2C)c1,0%,?,3%,-7.3%,17%,0%,3%,-63%
CC(C)(C)C(=O)Oc1ccc2cc(-c3ccc4ccccc4n3)c(=O)oc2c1,23%,7%,17%,-5.9%,16%,-12%,5%,7%
Cc1ccc(S(=O)(=O)c2c(COC(=O)c3ccccc3Cl)c(-c3ccccc3)nn2C)cc1,-8%,18%,-1%,3.1%,?,5%,20µM*,17%
Cc1onc(-c2c(Cl)cccc2Cl)c1C(=O)c1c[nH]c(C(=O)NCCCN2CCOCC2)c1,-1%,-5%,19%,4.6%,0%,7%,5%,-8%
O=C(c1nnc(Cc2ccc(Cl)cc2)o1)N1CCc2ccccc2C1,16%,-5%,2%,6.1%,0%,-8%,7%,-63%
COc1ccc(-c2nc3ccc([N+](=O)[O-])cc3[nH]2)cc1,-35%,-70%,8.9µM*,-9.5%,?,-25%,19%,0%
O=C(CSc1nc2ccccc2n1Cc1cccc(F)c1)N1CCN(c2ccc(F)cc2)CC1,/,0%,/,-0.9%,3%[46.1 µM],/,7%,/
O=C(NCCCn1ccnc1)C(=O)c1c[nH]c2ccccc12,-1%,-19%,-5%,/,-3%,12%,/,/
CCn1cc(C(=O)N[C@@H](C)C(=O)NCCO)c(=O)c2cc3c(cc21)OCO3,1%,3%,1%[46.1 µM],/,23%[46.1 µM],8%,/,-3%
COc1ccc(Cl)cc1NC(=O)c1cnc2n(c1=O)CCS2,-7%,-3%,/,-0.8%,/,5%,-3%,2%
Cc1ccc(/C=C/C(=O)NCCc2cccc(Cl)c2)o1,-12%,5%,-1%,/,2%,10%,/,-65%
CC1CCCN(S(=O)(=O)c2ccc(Cl)s2)C1 (configuration not stated),3%,-6%,28%[46.1 µM],/,12%[46.1 µM],7%,/,4%
COC(CNC(=O)c1ccc2nc(-c3cccs3)c(-c3cccs3)nc2c1)OC,6%,-23%,?,-12%,?,-10%,29%,-7%
OC(CNCc1cccc(Br)c1)c1ccccc1 (configuration not stated),1%,-6%,8%[46.1 µM],/,?,-19%,/,-2%
CC(C)C(NS(=O)(=O)c1cc(C(=O)O)ccc1Cl)C(=O)O (configuration not stated),0%,-5%,0%[46.1 µM],/,2%[46.1 µM],-23%,/,/
CCOc1cc(CN2CCc3c([nH]c4ccccc34)C2)ccc1OC,-5%,-17%,-29%,/,?,-7%,/,-15%
Cc1ccc(-c2nc3c4ccccc4n(CC(=O)NCc4ccc(F)cc4)c(=O)n3n2)cc1,/,20%,11%[46.1 µM],1.8%,/,/,27%,/
CN1CCc2c(n(CC(O)CN3C(=O)c4ccccc4S3(=O)=O)c3ccccc23)C1=O (configuration not stated),11%,0%,8%,-8.6%,-20%&-20%,12%,?,-1%
CC(C)(C)SCCNC(=O)/C=C/c1ccccc1,-1%,71%[activator],-15%,/,?,14%,/,1%
CCCC12CN3CC(CCC)(CN(C1)C3c1ccco1)C2=O (configuration not stated),1%,-13%,1%,/,-1%[46.1 µM],28%,/,-2%
CN(CC(=O)Nc1sccc1C#N)C1CCCCC1,0%,2%,3%,-5.7%,23%,-4%,-21%,7.9µM*
Cc1ccc(C(=O)c2cn(CC(=O)Nc3ccc(C(C)C)cc3)c3nc(C)ccc3c2=O)cc1,/,-1%,?,1.5%,/,/,-12%,/
N#C/C(=C(/O)COC(=O)c1ccc(C#N)cc1)c1nc2ccccc2s1,5%,11%,5%,-7.1%,-2%,2%,?,-3%
O=C(NCc1ccncc1)Nc1ccc(F)cc1,-2%,5%,17%,5.4%,5%,1%,-4%,4%
Nc1nc(CN2CCN(C(=O)c3ccco3)CC2)nc(Nc2cccc(Cl)c2)n1,0%,-12%,/,/,?,-4%,/,-1%
CCNc1nc2c(c(=O)n(C)c(=O)n2C)n1CC(O)COc1ccccc1 (configuration not stated),/,22µM*,8%[46.1 µM],-2.4%,22%[46.1 µM],/,-4%,/
COCCNC(=O)C(c1ccc(C)cc1)N(C(=O)C(=O)NC1CCCC1)c1ccc2c(c1)OCCO2 (configuration not stated),0%,10%,/,/,/,-8%,/,1%
CC(OC(=O)CCCOc1ccccc1)C(=O)Nc1ccc(Cl)cn1 (configuration not stated),7%,?,1%,/,26%,-24%,/,/
O=C1CCCC2=C1Sc1ccc(Cl)cc1N2,-14%,-1%,/,/,/,-5%,/,-42%
CCOC(=O)N1CCN(Cc2c(NC(=O)c3ccco3)sc(C)c2C)CC1,-1%,7%,-18%,/,-3%[46.1 µM],3%,/,/
Cc1ccccc1NS(=O)(=O)c1ccc2[nH]cc(C(=O)NCCCN3CCOCC3)c(=O)c2c1,3%,4%,1%,0.8%,0%&0%,-1%,-5%,-7%
O=C(Nc1c(Cl)ccc2nsnc12)c1ccco1,-2%,-5%,-1%[46.1 µM],/,2%[46.1 µM],10%,/,0%
COc1ccc(NC2=C(C(C)=O)C(c3ccc(N(C)C)cc3)C(C(C)=O)C(C)(O)C2)cc1 (configuration not stated),-3%,2%,/,/,4%,-1%,/,/
COc1ccc(/C=N/NC(=O)CNc2c(Br)cc(C)cc2Br)c(C(=O)O)c1OC,2%,1%,10%,/,?,-5%,/,/
O=C(Nc1cccnc1)c1ccccc1Oc1ccccc1,-6%,0%,-12%,0.3%,-5%,4%,-13%,6%
CC(C)CCNC(=O)C1CCN(c2nc3ccccc3o2)CC1,7%,?,2%,0.0%,-15%,-19%,8%,-2%
CC(C(=O)O)N1C(=O)C2C3c4ccccc4C(c4ccccc43)[C@@H]2C1=O (some centres not stated),1%,-7%,/,/,/,-13%,/,3%
CCOc1ccccc1NC(=O)Nc1nnc(N(C)Cc2ccccc2)s1,/,-11%,16%[46.1 µM],-1.0%,1%[46.1 µM],/,0%,/
COc1ccc(C2(C(=O)Nc3ccc(S(=O)(=O)Nc4nc(C)cc(C)n4)cc3)CCCC2)cc1OC,-2%,40%[activator],-14%,2.3%,3%,14%,?,3%
Cc1ccnc2nc(C(=O)OCC(=O)NCCc3ccc(Cl)cc3)nn12,10%,-10%,14%,-1.1%,29%,2%,0%,12%
O=C(CSc1nc(=O)n(Cc2ccco2)c2c1CCC2)NCc1ccccc1Cl,/,17%,2%[46.1 µM],-5.3%,/,/,-18%,/
c1ccc(-c2noc(CN3CCN(c4ccccc4)CC3)n2)cc1,7%,-9%,/,-2.5%,/,-15%,-1%,-68%
Cc1ccc(-c2nc(CS(=O)CC(=O)NCCN3CCOCC3)c(C)o2)cc1 (configuration not stated),13%,-16%,/,-0.1%,/,4%,2%,?
C#CC(C)OC(=O)C(C)NC(=O)c1ccccc1 (configuration not stated),2%,1%,/,2.7%,/,-13%,-2%,0%
COc1cccc(S(=O)(=O)NCc2ccc(C(=O)NCc3ccco3)cc2)c1,-1%,0%,14%,-4.2%,13%,13%,-3%,?
CN(C)CCCNC(=S)N(CCO)Cc1cc2cc3c(cc2[nH]c1=O)OCO3,5%,-10%,/,/,/,-13%,/,-1%
COC(=O)c1cn(NC(=O)COc2ccc(Cl)cc2)c(=O)c2ccccc12,1%,-9%,?,/,22%[46.1 µM],16%,/,/
Cc1ccc2cc(S(=O)(=O)NCCCN3CCOCC3)ccc2c1,-2%,-9%,6%,/,-3%[46.1 µM],-10%,/,2%
O=C(NCCCO)c1nc2ccccc2s1,-2%,-2%,16%,-1.1%,3%[46.1 µM],3%,2%,7%
Cc1noc(C)c1COC(=O)c1cccc(S(=O)(=O)N2c3ccccc3CC2C)c1 (configuration not stated),-8%,?,?,4.5%,?,21%,9%,-4%
COCCNC(=O)c1c(N)n(/N=C/c2cccs2)c2nc3ccccc3nc12,11%,-10%,0%,-28%,?,-2%,?,1%

(listing goes on)
mol,SARS PLpro yeast,StopGo reporter,LASV entry inh,Cruzain inh Det,Marburg entry inh,RE007 growth inh,Cruzain inh noDet,NS1 function inh
COc1ccc(NC(=O)c2ccc(-n3cccn3)nc2)cc1,-3%,13%,-25%,2.6%,-13%,7%,1%,-11%
COc1ccc(N=Nc2ccc3ccccc3c2)c(O)c1,0%,-52%,/,/,/,-7%,/,-5%
CC(C)(C)n1nnnc1C(c1ccccn1)N(Cc1ccccc1)Cc1ccc(Cl)cc1 (configuration not stated),/,-24%,?,2.5%,?,12%,6%,-7%
COc1cccc(CN(C)CC(=O)Nc2ccccc2C(=O)Nc2ccccc2)c1,0%,-8%,-3%,/,-7%[46.1 µM],2%,/,/
Cc1ccc(N2C(=O)CC(n3nc(C)cc3C)C2=O)cc1 (configuration not stated),9%,0%,18%,4.2%,-2%,-3%,3%,4%
